gsp ag – qHTS for Agonist of gsp, the Etiologic Mutation Responsible for Fibrous Dysplasia/McCune-Albright Syndrome: qHTS | gsp mutant cells, cAMP HTRF, 30 min; control for the full effect not named in the record | Potency, µM (doses to about 76.9 µM), inactives show at the highest dose activation (cAMP increase), usual class: activators | actives 0.13% (n = 340,000); active = well fitted activation curve with a large enough effect; inconclusive = small, poorly fitted or top-dose-only effect, or another doubt; inactive = no such curve, though single readings can be large or run the other way; cell line not stated here;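 also: phosphodiesterase inhibitor Ro 20-1724 added with compounds to block cAMP breakdown; potency is read from the fitted curve at half-maximal effect; nearly all actives have a fitted effect of over 60% in size; about a fifth of the inactives were tested at one dose only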
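Cells in DMEM/10% FBS with G418 were pretreated with compounds in DMSO plus […] (300 uM stock) for 30 min at 37C. cAMP was measured by HTRF (cAMP-d2 plus anti-cAMP antibody-K) after 30 min at room temperature.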
ClpP mod – qHTS Assay for Activators of ClpP; actives 1.9% (n = 340,000); purified B. subtilis ClpP, FRET peptide cleavage, 20 min; Potency, µM (doses to about 57.5 µM), without a hit: at the top dose activity change, negative = active; ATP-dependent Clp protease proteolytic subunit (Bacillus subtilis (strain 168)), P80244; active = well fitted falling curve with a large enough effect; inconclusive = small, poorly fitted or top-dose-only effect; inactive = no such curve, though single readings can be large or run the other way; also: potency is read from the fitted curve at half-maximal effect; the source files actives as falling curves though it sought activators and does not explain the sign; nearly all actives have a fitted effect of over 65% in size; many hits overshoot -100%
Target sequence (P80244 whole entry, looked up): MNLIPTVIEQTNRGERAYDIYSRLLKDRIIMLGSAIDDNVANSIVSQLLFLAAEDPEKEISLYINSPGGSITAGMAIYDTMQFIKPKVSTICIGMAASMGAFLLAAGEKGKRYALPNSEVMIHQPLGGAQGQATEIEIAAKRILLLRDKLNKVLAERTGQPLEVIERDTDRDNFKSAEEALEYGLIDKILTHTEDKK
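ClpP 10 microg/mL final, pH 8 Tris/KCl buffer with BSA, glycerol, Tween-20; compound pinned in; FRET-FV substrate; RT 20 min; Ex320/Em430; ΔFRET vs ADEP 5.8 microM, DMSO, no enzyme.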
D2 potentiator – Beta-Arrestin HTS for Positive Allosteric Modulators of the Human D2 Dopamine Receptor: Potentiators; D(2) dopamine receptor (Homo sapiens), P14416; DiscoveRx D2 beta-arrestin cells, luminescence, 90 min; 100% = 57 uM dopamine signal; potentiation, % (no concentration beside the values); actives 0.23% (n = 360,000); active = potentiation of 50% or more; inconclusive = 30% to 50%; inactive = 30% or less;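 also: compound concentration not given in the record; tested on top of an EC20 dose of dopamine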
Target sequence (P14416 whole entry, looked up): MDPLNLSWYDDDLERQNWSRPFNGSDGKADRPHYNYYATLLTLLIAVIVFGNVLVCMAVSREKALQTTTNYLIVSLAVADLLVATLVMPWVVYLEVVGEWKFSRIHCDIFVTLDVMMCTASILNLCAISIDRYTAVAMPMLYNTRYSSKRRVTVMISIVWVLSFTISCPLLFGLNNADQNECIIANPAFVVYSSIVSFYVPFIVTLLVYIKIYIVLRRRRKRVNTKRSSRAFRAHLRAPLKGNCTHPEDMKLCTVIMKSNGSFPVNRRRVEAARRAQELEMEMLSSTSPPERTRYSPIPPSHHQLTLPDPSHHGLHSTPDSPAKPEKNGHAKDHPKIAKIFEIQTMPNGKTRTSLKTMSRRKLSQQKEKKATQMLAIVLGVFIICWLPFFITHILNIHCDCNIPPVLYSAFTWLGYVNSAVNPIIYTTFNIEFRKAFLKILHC
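D2 cells co-treated with compound plus 50 nM dopamine (EC20) for 90 min at 37 deg C to detect potentiation. Beta-arrestin recruitment was read as enzyme-fragment luminescence after 1 h at ambient temperature. Full response was set by 57 uM dopamine.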
gsp antag – qHTS for Antagonists of gsp, the Etiologic Mutation Responsible for Fibrous Dysplasia/McCune-Albright Syndrome: qHTS. gsp-mutant cells, cAMP HTRF, 30 min; control for the full effect not named in the record. Potency, µM (doses to about 76.9 µM), for the others: at the top dose activity change, negative = inhibition, usual class: inhibitors. actives 0.4% (n = 340,000); active = falling curve of any shape with a large fitted effect; inconclusive = falling curve, mostly with a smaller effect; inactive = flat or rising curve; cell line not stated here;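 also: intracellular cAMP measured with PDE inhibitor Ro 20-1724 present during compound exposure; potency is read from the fitted curve at half-maximal effect; % is scaled to controls: 0 for no effect and ±100 for the full control effect; nearly all actives have a fitted effect of over 65% in size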
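Measurement of cellular cAMP by homogeneous time-resolved fluorescence following a 30 min compound exposure at 37C. The PDE inhibitor […] was present throughout; the assay buffer was DPBS with 0.05% BSA and 0.005% Tween 20.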
Menin-MLL FL inh – qHTS Assay for Inhibitors Targeting the Menin-MLL Interaction in MLL Related Leukemias: Competition With Fluorescein Labeled MLL-derived Peptide | AID 1766, 2009 | 290,000 tested, under 10 active | FP activity change, % at 61.4 µM | Fluorescence polarization, fluorescein-MLL peptide displacement from menin; inconclusive = falling polarisation curve, or a change in total fluorescence; inactive = total fluorescence flat and polarisation flat or rising; no compound was filed as active; the % refers to the polarisation; negative = inhibition;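 also: % of control where 0% means no effect; inhibitors lower the polarisation; unlabelled MLL peptide was the positive control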
Sfp inh – qHTS Assay for Inhibitors of Bacillus subtilis Sfp phosphopantetheinyl transferase (PPTase) | 4'-phosphopantetheinyl transferase ffp (Bacillus subtilis), Q9F4F7 | Biochemical Sfp PPTase activity, qHTS | Potency, µM, without a hit: max response, negative = inhibition, hits mostly inhibitors | actives 3.5% (n = 310,000) | AID 1490, 2009; active = well fitted inhibition curve with a large enough effect; inconclusive = small, poorly fitted or top-dose-only effect, or another doubt; inactive = no such curve, though single readings can be large or run the other way;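 also: the enzyme is Sfp with the accession as filed and its product quenches rhodamine fluorescence; potency is read from the fitted curve at half-maximal effect; 0% = enzyme reaction without inhibitor and -100% = no enzyme wells; top concentration of the series not given in the record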
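Fluorescence-quenching assay with 15 nM Sfp, 5 uM rhodamine-CoA and 12.5 uM BHQ-2-labelled ybbR peptide in pH 7.6 Hepes/MgCl2 buffer. Enzyme was pre-incubated with compound for 15 min at room temperature. Rate was taken from the 30-min fluorescence change (525/598 nm).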
TRPV1 PAM – HTS Assay for Compounds that Act as Potentiators of the Vanilloid Receptor 1 | AID 540277, 2011 | TRPV1-expressing cells, Fluo-8 calcium influx, capsaicin EC20 potentiation; host cell line not named in the record; control for the full effect not named in the record | actives 0.02% (n = 320,000) | potentiation, % at 8.33 µM | Transient receptor potential cation channel subfamily V member 1 (Homo sapiens), Q8NER1; active means potentiation above 80%; inconclusive means 30% to 80%; inactive means below 30%; also: 0% is about no effect
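TRPV1-expressing cells were cultured overnight at 35.5C and loaded with Fluo-8 calcium dye for 40 to 90 min at room temperature. After a 10 s baseline, compound was added and calcium influx was read kinetically for 3 min (ex 480/em 520 nm).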
* hit, by the source's call; ? = inconclusive; · = no result given; & = joins results of further samples; ! = not active in a repeat; [ ] = remark or other dose. Outcome played no part in choosing rows; overall some 5.1% were active at least once.

SMILES	gsp ag	ClpP mod	D2 potentiator	gsp antag	Menin-MLL FL inh	Sfp inh	TRPV1 PAM
COc1ccc(-c2ccc3[nH]c4c(c3c2)CCN2C(=O)[C@@H]([C@H](C)O)[C@@H](N(C)C(=O)Nc3ccc(F)cc3)C[C@@H]42)cc1	-10%	3.8%	-6	·	·	·	·
CCN(CC)P(=O)(C(NC(=O)OC)C(F)(F)C(F)(F)C(F)(F)C(F)F)N(CC)CC (stereo unspecified)	-18%	0.7%	12	5%	2.0	-5%	19
COc1ccc(/C=C/C(=O)C2CC2)cc1COc1cccc(C)c1C	2%[15.4 µM]	0.4%	-11	1%	5.5	-14%	17
CC(C)(C)c1cc(C(=O)N/N=C/c2ccc([N+](=O)[O-])s2)n[nH]1	19%[15.4 µM]	-3.8%	7	-1%	-0.9	0%	·
CCOc1ccc(-n2nc3ccc(NC(=O)CC)cc3n2)cc1	6%[15.4 µM]	-1.7%	-15	4%	2.1	-1%	-5
Nc1nc(F)cc(N2CCCCCC2)n1	20%[15.4 µM]	·	0	-11%	-2.5	25%	3
O=C(COc1cccc(C(F)(F)F)c1)NCC(c1ccco1)N1CCCC1 (stereo unspecified)	-30%	-3.1%	-10	-2%	·	·	·
CN(C)c1ccc(C=C2C=C(c3ccccc3)OC2=O)cc1	-36%[inhibitor]	13%	-34	·	·	·	·
COC(=O)c1nn(-c2ccccc2)c(Cl)c1/C=N/OCc1c(Cl)cccc1Cl	9%	-9.0%	-15	4%	·	·	·
O=C(CNC(=O)c1ccccc1Br)N/N=C/c1ccccc1O	-17%[15.4 µM]	·	-1	-20%	-0.4	20%	14
O=C(NCc1ccc(F)cc1)C1CCCN(S(=O)(=O)c2ccc(-n3cnnn3)cc2)C1 (stereo unspecified)	?	·	-5	3%	1.4	24%	-4
CN(C(=O)CSc1nc(O)cc(=O)n1-c1ccccc1F)c1ccccc1	-3%	0.8%	-4	-8%	·	-7%	-1
CCN(CC(=O)NC(=O)NCc1ccco1)Cc1nc2ccccc2c(=O)[nH]1	6%[15.4 µM]	-18%	-10	-1%	6.3	50µM*	0
O=C(CNC(=O)N1CC(=O)Nc2ccccc21)Nc1ccc(Cl)cc1	-55%[inhibitor]	-1.2%	-12	-10%	-4.5	5%	13
CCOc1cccc(C2C(C(=O)c3ccco3)=C(O)C(=O)N2Cc2ccncc2)c1 (stereo unspecified)	3%	-0.7%	4	-7%	5.6	-23%	11
O=C1CC(c2ccccc2)NN1 (stereo unspecified)	14%	-0.8%	-16	11%	·	·	5
O=C(CSc1ccccc1)Nc1nnc(/C=C/c2ccccc2)s1	14%	?	-13	12%	1.7	19%	5
CCOC(=O)c1cc2c(=O)n3cccc(C)c3nc2n(C)c1=N	·	·	·	·	-7.6	-15%	4
c1ccc(-n2nnnc2-c2cnc(-c3cccnc3)nc2-c2cccs2)cc1	4%	-17%	-5	-4%	-0.3	-10%	2
N#Cc1nc(-c2ccco2)oc1NCCc1ccccc1	-47%[inhibitor]	28µM*	-12	-6%	5.1	-6%	-3
Cc1ccc(NS(=O)(=O)c2ccccc2F)cc1S(=O)(=O)N1CCCCC1	2%	1.3%	11	-9%	·	·	-4
Cc1ccc(C)c(NC(=O)CSc2nnc(CNC(=O)c3ccco3)o2)c1	6%	-0.7%	-29	7%	·	-5%	-17
COc1ccc(N2C(=O)NC3CC2(C)Oc2ccccc23)cc1OC (stereo unspecified)	18%	1.3%	1	3%	0.3	5%	·
CN(Cc1ccccc1)C(=O)COC(=O)C1=NNC(=O)CC1	-40%[inhibitor]	-0.3%	-7	9%	0.1	-6%	-6
Cc1ccc(S(=O)(=O)NCCOc2nc(N(C)C)nc(N3CCOCC3)n2)cc1	-20%	0.1%	-12	16%	-0.4	-12%	9

Full records as entered above. Order of values: gsp ag | ClpP mod | D2 potentiator | gsp antag | Menin-MLL FL inh | Sfp inh | TRPV1 PAM
COc1ccc(N2C(=O)NC3CC2(C)Oc2ccccc23)cc1OC (stereo unspecified) reads 18% | 1.3% | 1 | 3% | 0.3 | 5% | ·
O=C(CSc1ccccc1)Nc1nnc(/C=C/c2ccccc2)s1 reads 14% | ? | -13 | 12% | 1.7 | 19% | 5

The list goes on.
SMILES	gsp ag	ClpP mod	D2 potentiator	gsp antag	Menin-MLL FL inh	Sfp inh	TRPV1 PAM
CCOc1cc(CNc2ccc3[nH]c(=O)[nH]c3c2)ccc1OCC(=O)NC(C)(C)C	-12%	22%	9	-13%	-1.9	?	-5
Cc1cccc(N=C2NC(=O)S/C2=C\c2ccco2)c1	-15%	·	-14	-21%	?	56µM*	-3
C=COCCn1c(=N)n(CCC)c2ccccc21	-43%[inhibitor]	-3.0%	-3	13%	4.4	21%	-8
CCCc1nnc(NC(=O)C(=O)NCCN(C)C)s1	-14%[15.4 µM]	·	-8	13%	6.1	?	9
COc1ccc(CCNC(=O)c2nnn(CC(=O)Nc3ccc(C)cc3C)c2N)cc1OC	30%	1.1%	-18	22%	2.1	?	1
C/C(=N\OC(=O)c1ccc(Br)cc1)c1ccccn1	-25%	1.2%	1	7%	1.3	?	13
CCCCCCCCC(=O)c1c(OC)oc(C=O)cc1=O	-28%	-10%	-8	·	·	·	·
COCc1nnc(NS(=O)(=O)c2ccc(OC)cc2)s1	7%	-1.1%	-12	-3%	·	·	·
COC(=O)c1ccc2c(c1O)C(=O)c1ccccc1C2=O	-1%	-0.2%	107*	-8%	-0.6	?	-3
COC(=O)CSc1nc(C)c(Oc2ccccc2)c(=O)[nH]1	4%	3.4%	-6	-4%	0.0	2%	9
COCCNC(=S)N1CCC(NC(=O)c2ccco2)CC1	8%[15.4 µM]	·	4	-46%	-1.8	21%	8
O=C(Cc1csc(-c2ccccc2)n1)NCC(=O)Nc1ccc(F)c(F)c1F	?	·	-7	4%	·	·	·
COc1cc(S(=O)(=O)Nc2ccccc2C)ccc1NC(=O)c1ccncc1	-1%[15.4 µM]	·	-6	-3%	1.7	13%	-31
CN(c1ccccc1)S(=O)(=O)c1cccc(C(=O)Nc2cccc(C(=O)NC3CC3)c2)c1	13%	-1.2%	-15	?	·	·	1
CS(=O)(=O)Nc1nnc(C2CCCC2)s1	3%[15.4 µM]	·	1	5%	1.4	-10%	19
O=C(CSc1nc2ccccc2c(=O)[nH]1)N1CCN(c2ccccc2F)CC1	17%	·	-8	-17%	6.9	7%	13
COCCN(C(=O)COC(=O)c1c(C)nn(-c2ccccc2)c1C)c1c(N)n(Cc2ccccc2)c(=O)[nH]c1=O	-26%	0.0%	0	·	·	·	·
O=C(CSc1ccc2c(c1)OCCO2)Nc1ccc(Cl)cn1	0%	1.1%	-7	-5%	-0.1	5%	-11
O=C(CN1CCN(Cc2cccc(C(F)(F)F)c2)CC1)NCC(=O)Nc1ccc(F)c(F)c1F	6%	-2.3%	-28	6%	·	·	·
Cc1ccc(SCCNS(=O)(=O)c2ccc3c(c2)OCCO3)cc1	-5%	-0.9%	-7	-26%	-1.0	14%	0
COc1cc2c(cc1NC(=O)COC(=O)/C=C/c1ccc([N+](=O)[O-])cc1)oc1ccccc12	1%	-1.5%	-4	8%	5.0	?	0
CCOc1cccc(-c2nnc(SCC(=O)NC3CC3)n2C)c1	11%	-0.1%	-6	-7%	2.8	4%	8
CC(C)Cn1c(N)c(C(=O)COC(=O)c2cc(C3CC3)nc3ccccc23)c(=O)n(C)c1=O	7%	25µM*	11	-21%	-0.1&5.7	14%&12%	2
CSc1nsc(/C=C/Nc2ccc(C)cc2)c1C#N	11%	-0.1%	?	-2%	?	-1%	-4
O=c1ccc2cc(O)c(O)cc2o1	·	4.9%	-3	-11%	1.3	56µM*!	3
New compounds follow
SMILES	gsp ag	ClpP mod	D2 potentiator	gsp antag	Menin-MLL FL inh	Sfp inh	TRPV1 PAM
Cc1ccc(NC(=O)CN(C)C(=O)c2ccc(Cl)nc2)cc1	-21%[15.4 µM]	·	-15	7%	-4.7	30%	-2
CNC(=S)N/N=C/c1c(C)c(C(=O)c2ccc(F)cc2)n2ccccc12	-15%	·	-3	10%	4.6	-9%	-3
CC1=C(C(=O)OC(C)C)C(c2cccs2)NC(=S)N1 (stereo unspecified)	-1%	0.2%	-10	1%	2.6	10%	2
O=C(O)c1cc(Nc2nc(N3CCOCC3)nc(N3CCOCC3)n2)ccc1Cl	-17%	-0.7%	-5	-8%	3.5	24%	4
CCOC(=O)C1=C(c2ccccc2)OC(N)=C(C#N)C1c1cccs1 (stereo unspecified)	?	-4.1%	1	-31%	2.0	?	-19
COc1cc(S(=O)(=O)Nc2ccccc2)ccc1N=Cc1c(C)[nH]n(-c2ccc(C)cc2)c1=O	·	·	·	·	2.1	5%	2
CN(C)c1cccc(NC(=O)NC2(C)CCS(=O)(=O)C2)c1 (stereo unspecified)	0%	·	-1	-15%	-5.0	-1%	-8
COc1ccc2nc(NC(=O)CSCc3c(C)noc3C)sc2c1	-2%	3.7%	-2	-31%	·	·	3
COc1ccc(Cn2c(=S)[nH]c3cc(C(=O)NCc4cccnc4)ccc3c2=O)cc1	-9%[15.4 µM]	·	-1	-7%	4.3	-10%	2
COCCCNc1nc2c(-c3ccc(C)cc3)nnn2c2ccccc12	-1%	-11%	-11	-3%	-1.1	12%	5
O=C(O)c1ccccc1/C=N/NC(=O)C1CCCC1	-3%	-1.9%	-24	8%	-2.6	2%	9
CCCCC(=O)N(Cc1ccc2c(c1)OCO2)Cc1nc2ccccc2c(=O)[nH]1	-9%[15.4 µM]	·	-6	-11%	-4.6	-12%	-10
Cc1ccc(S(=O)(=O)N2CCCC2C(=O)OCc2ccco2)cc1 (stereo unspecified)	-36%[inhibitor]	0.5%	-1	-28%	10	?	1

Screening data (PubChem BioAssay)
